Source: PubChem BioAssay
Ecoli rRNA inh: inhibitors of bacterial rRNA selective over humanized ribosomes. E. coli WT GFP vs humanized-ribosome RFP mutants, fluorescence, 24 h; hits give low values; DMSO median 0, no signal -100. GFP signal change (wild-type ribosome), % (test concentration not listed). 1.6% of 350,000 active;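 active = significant combined selectivity score with lowered wild-type GFP, culture density cut under 30%, mutant RFP and density less affected; inactive = any of these conditions unmet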; also: one replicate is shown; some compounds called inactive have numbers as strong as hits
Ecoli rRNA inh OD600: also measured in Ecoli rRNA inh; calls as there; OD600 change, %; measured here: OD600 growth;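 optical density of the mix in the first replicate; 0 = DMSO median and -100 = no signal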
Ecoli rRNA inh RFP: recorded beside Ecoli rRNA inh, whose call it bears; RFP signal change, %; measured here: RFP humanized mutant strains;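 first replicate; 0 = DMSO median and -100 = no signal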
* marks the source's active call; other numbers are inactive results; & = joins results of further samples.

SMILES	Ecoli rRNA inh	Ecoli rRNA inh OD600	Ecoli rRNA inh RFP
C[C@@H]1CCCCO[C@H](CN(C)C(=O)Nc2ccc(C(F)(F)F)cc2)[C@@H](C)CN([C@@H](C)CO)C(=O)c2cc(NC(=O)Nc3ccc(C(F)(F)F)cc3)ccc2O1	-4	-3	-3.2
C[C@@H]1CN([C@@H](C)CO)C(=O)c2cc(/C=C/c3ccccc3)cnc2O[C@H]1CN(C)C(=O)Cc1ccccn1	-5	-3	-1.3
C[C@H]1CN([C@@H](C)CO)S(=O)(=O)c2ccc(C#Cc3ccccn3)cc2O[C@H]1CN(C)C(=O)C1CC1	-5	-4	0.1
COc1ccc(S(=O)(=O)Nc2ccc3c(c2)[C@@H]2C[C@H](CC(=O)N(C)C)O[C@@H](CO)[C@@H]2O3)cc1	-6	-12	0.8
C[C@H](CO)N1C[C@H](C)[C@@H](CN(C)C)Oc2ccc(NC(=O)CCN3CCOCC3)cc2CC1=O	3	6	-1.8
CCC(=O)N1CC2(C1)[C@H](c1ccccc1)[C@H](CO)N2CC1CC1	2	3	-1.0
CCCNC(=O)N1CC(=O)N2[C@@H](CO)[C@@H](c3ccc(C#Cc4ccc(F)cc4)cc3)[C@@H]2C1	0	-11	6.1
CCCC(=O)Nc1ccc2c(c1)C(=O)N(C)C[C@H](OC)[C@H](C)CN[C@@H](C)CO2	3	11	-2.1
COc1ccc(NC(=O)Nc2ccc3c(c2)C(=O)N([C@@H](C)CO)C[C@H](C)[C@@H](CN(C)C(=O)c2ccccc2)OCCCC[C@H](C)O3)cc1	-1	3	0.5
COCC#Cc1cnc2c(c1)C(=O)N([C@@H](C)CO)C[C@@H](C)[C@H](CN(C)C(=O)C1CCC1)O2	1	8	-0.2
CCC(=O)N1CCC1(C)C(=O)Nc1ccc2scnc2c1 (stereo unspecified)	7	8	4.4
C[C@H](CO)N1C[C@H](C)[C@@H](CN(C)C(=O)NC2CCCC2)Oc2ncc(C3=CCCC3)cc2C1=O	-3	3	-0.5
O=C([C@H]1[C@H](CO)[C@H]2Cn3c(ccc(-c4ccccc4)c3=O)[C@H]2N1CCC(F)(F)F)N1CCOCC1	-1	3	-1.3
CCCN1[C@@H]2c3ccc(/C=C/c4ccccc4)c(=O)n3C[C@@H]2[C@@H](CO)[C@@H]1C(=O)NCC1CC1	-6	-16	22
C[C@@H]1CCCCO[C@H](CN(C)CC2CC2)[C@H](C)CN([C@H](C)CO)C(=O)c2cc(NS(=O)(=O)c3ccc(F)cc3)ccc2O1	2	3	2.1
CC(C)NC(=O)N(C)C[C@@H]1Oc2c(NC(=O)c3ccncc3)cccc2C(=O)N([C@H](C)CO)C[C@@H]1C	-3	8	-3.4
C[C@@H]1CCCCO[C@@H](CN(C)C(=O)NC2CCCCC2)[C@@H](C)CN([C@@H](C)CO)C(=O)c2cc(NC(=O)C3CCCCC3)ccc2O1	1	5	-2.7
CNC[C@@H]1Oc2ccc(NC(=O)NC(C)C)cc2C(=O)N([C@@H](C)CO)C[C@@H]1C	-2	3	-2.0
CO[C@@H]1CN(C)C(=O)c2cc(NC(=O)NC(C)C)ccc2OC[C@@H](C)N(Cc2cncnc2)C[C@@H]1C	2	0	0.7
O=C(C[C@H]1C[C@H]2c3cc(NC(=O)Nc4ccccc4F)ccc3O[C@H]2[C@@H](CO)O1)NCCc1ccccc1	0	-4	-1.1
CCN(CC)C(=O)C1=C(C)N(Cc2ccc(F)cc2)C(=O)C(CC(=O)NCCc2ccccn2)C1 (stereo unspecified)	6	9	-0.2
C[C@@H]1CN([C@@H](C)CO)C(=O)c2cccc(NC(=O)C3CCCCC3)c2O[C@@H]1CN(C)CC1CCCCC1	0	-5	-1.6
COCC(=O)N1C[C@H](C)[C@H](OC)CN(C)C(=O)c2ccc(NC(=O)Nc3cccc(F)c3)cc2OC[C@@H]1C	-2	5	1.3
CC(C)C[C@H]1COCc2cn(nn2)CC[C@@H](Cc2ccc(Cl)cc2)C(=O)N1	-3	-7	2.4
C[C@@H]1CN([C@H](C)CO)C(=O)c2cccc(NC(=O)Nc3ccc(F)cc3)c2O[C@@H]1CN(C)S(=O)(=O)c1ccc(F)cc1	4	7	-0.5
COCC#Cc1ccc2c(c1)O[C@@H](CN(C)S(=O)(=O)c1ccc(OC)cc1)[C@@H](C)CN([C@@H](C)CO)S2(=O)=O	0	-5	7.6
C[C@@H]1CCCCO[C@@H](CN(C)Cc2ccc3c(c2)OCO3)[C@@H](C)CN([C@H](C)CO)C(=O)c2cc(NS(=O)(=O)c3ccc(F)cc3)ccc2O1	10	-38	28
COc1ccc(CN2CC3(CN(C(=O)C4CCOCC4)C3)c3c(n(C)c4cc(OC)ccc34)[C@@H]2CO)cc1	3	8	-2.2
Nc1nc(-c2ccccc2Cl)cs1	-24	-53	21
C[C@@H](NC(=O)C[C@H]1CC[C@H](NC(=O)C2CC2)[C@H](CO)O1)c1ccccc1	0	10	2.2
CN1C(=O)[C@@]2(C3=C(CCCC3=O)OC3=C2C(=O)OC2(CCCCC2)C3)c2ccccc21	10	7	-2.2
CN1[C@@H]2Cn3c(ccc(-c4ccncc4)c3=O)[C@H]1[C@@H](C(=O)NCC1CCCCC1)[C@@H]2CO	1	3	-5.0
CCCCCCCCN1C(=O)[C@@H](CC(=O)NCC2CCCCC2)C[C@@]2(C(=O)OC)C1=C[C@H](C1CCCC1)O[C@@H]2C	11	1	1.0
O=C(C[C@@H]1C[C@@H]2c3cc(NC(=O)Nc4ccccc4F)ccc3O[C@@H]2[C@@H](CO)O1)NC1CCCC1	-1	3	1.3
CN(C)C(=O)[C@H]1[C@H](CO)[C@H]2Cn3c(ccc(C4=CCCC4)c3=O)[C@@H]1N2Cc1cccnc1	-1	1	-1.7
C[C@@H]1CCCCO[C@@H](CN(C)C(=O)c2ccccc2)[C@H](C)CN([C@H](C)CO)C(=O)c2cc(NC(=O)Nc3ccc4c(c3)OCO4)ccc2O1	-1	0	-0.5
Cc1noc(C)c1S(=O)(=O)Nc1ccc2c(c1)C(=O)N([C@H](C)CO)C[C@@H](C)[C@H](CN(C)C(=O)Nc1cccc3ccccc13)OCCCC[C@@H](C)O2	5	-4	0.6
C[C@H](CO)N1C[C@H](C)[C@H](CN(C)C(=O)Nc2cccc(F)c2)Oc2cc(C#CC3(O)CCCC3)ccc2S1(=O)=O	1&-5	11&-2	0.8&2.4
CCS(=O)(=O)N1CCC2(CC1)CN[C@@H](CO)c1c2c2ccc(OC)cc2n1C	-1	6	-3.2
CO[C@@H]1CN(C)C(=O)c2cc(NC(=O)C3CC3)ccc2OC[C@@H](C)N(Cc2cncnc2)C[C@H]1C	3	4	-2.3
CCC(=O)Nc1ccc2c(c1)C(=O)N(C)[C@H]1CC[C@H](CC(=O)NCc3ccc(OC)cc3)O[C@H]1CO2	1	1	-0.6
O=S(=O)(N[C@H]1CC[C@@H](CCn2cc(-c3cccnc3)nn2)O[C@@H]1CO)c1ccccc1	0	3	-2.4
COc1cccc(C(=O)Nc2ccc3c(c2)OC[C@@H](C)N(C(C)=O)C[C@H](C)[C@H](OC)CN(C)C3=O)c1	-2	-6	1.6
CCN(C[C@@H]1[C@@H](c2ccccc2)[C@@H](CO)N1CC1CC1)C(=O)c1ccccc1F	5	14	0.7
Cc1ccc(S(=O)(=O)N[C@@H]2C=C[C@H](CC(=O)NCc3ccncn3)O[C@@H]2CO)cc1	2	1	1.5
Cc1ccc(S(=O)(=O)N(C)C[C@@H]2OCCCC[C@@H](C)Oc3ccc(NC(=O)Nc4c(C)noc4C)cc3C(=O)N([C@@H](C)CO)C[C@@H]2C)cc1	0	-4	-5.9
COCC(=O)N1CC2(CN(Cc3ccc(OC)cc3)C2)c2c([nH]c3cc(OC)ccc23)[C@H]1CO	0	5	0.8
C[C@H](O)[C@@H]1C(=O)N2CCc3c([nH]c4c(-c5ccccc5)cccc34)[C@@H]2C[C@@H]1N(C)C(=O)c1ccco1	-20	-43	-3.2
COc1ccc2c3c([nH]c2c1)[C@@H](CO)N(C(=O)NC(C)C)CC31CCN(C(=O)C2CCCCC2)CC1	-1	-3	-0.2
O=C(CC1CC1)N1CC[C@@H]2[C@@H](CO)Nc3ccc(-c4cccc(F)c4)cc3[C@@H]21	1	-19	3.0
COc1ccccc1-c1cn(CC[C@@H]2CC[C@@H](NC(=O)Cc3ccccn3)[C@H](CO)O2)nn1	-1	0	0.1
CCOC1=C2[C@@H](CN(S(=O)(=O)c3ccc(C)cc3)[C@H]2c2cccc3ccccc23)[C@H]2C(=O)N(c3ccccc3)C(=O)[C@H]2C1	14	12	5.8
CNC(=O)C[C@H]1CC[C@@H]2[C@H](COc3ccc(NC(=O)Nc4cccc(F)c4)cc3C(=O)N2C)O1	2	-4	0.1
Cc1cccc(C(=O)NNC(=O)C2CCCCC2)c1O	-8	-11	-4.0
C[C@H]1CN([C@@H](C)CO)S(=O)(=O)c2ccc(-c3cccc(F)c3)cc2O[C@H]1CN(C)S(=O)(=O)c1ccccc1	-4	-2	1.9
C[C@H](CO)N1C[C@H](C)[C@@H](CN(C)Cc2ccc(Cl)c(Cl)c2)Oc2c(cccc2N(C)C)C1=O	-13	-24	0.4
CC(C)(C)N1C(=O)c2ccccc2NC(=O)C1C(=O)NCCc1ccccc1 (stereo unspecified)	6	11	1.2
C[C@H]1CN([C@@H](C)CO)C(=O)c2cc(C3=CCCCC3)cnc2O[C@H]1CN(C)Cc1ccccn1	0	2	-2.3
Cc1ccc(S(=O)(=O)N(C)C[C@H]2OCCCC[C@H](C)Oc3ccc(NC(=O)NC(C)C)cc3C(=O)N([C@H](C)CO)C[C@H]2C)cc1	-3	-8	0.2
O=C(NCc1ccccc1)[C@@H]1CCCN1C(=O)[C@H]1CCCN1C(=O)c1c(F)cccc1F	12	24	0.9
(listing goes on)
SMILES	Ecoli rRNA inh	Ecoli rRNA inh OD600	Ecoli rRNA inh RFP
CO[C@@H]1CC[C@@H]2CCN(C)C(=O)[C@H](C)[C@H](OC)CN(C)C(=O)c3cccc(C#N)c3OC[C@@H]1O2	-4	2	0.0
CN1C(=O)c2cc(NC(=O)C3CCOCC3)ccc2OC[C@H]2O[C@@H](CC(=O)NCc3ccc4c(c3)OCO4)CC[C@H]21	4	1	-1.3
CO[C@H]1CN(C)C(=O)c2ccc(NS(=O)(=O)c3ccc(Cl)cc3)cc2OC[C@@H](C)N(C)C[C@H]1C	-1	-2	-1.0
COc1ccc(C2=Nc3ccccc3N(C(=O)c3ccc(C(F)(F)F)cc3)C2C(=O)Nc2ccc3c(c2)OCCO3)cc1 (stereo unspecified)	7	-2	0.3
CC(=Nc1ccc(Cl)cc1N)c1c(O)cc(C)oc1=O	17	17	4.9
N#C[C@@H]1[C@@H](c2ccccc2-c2ccccc2F)[C@H](CO)N1C(=O)Cc1ccccc1	-12	-25	1.6
COc1ccc(S(=O)(=O)Nc2ccc3c(c2)C(=O)N([C@H](C)CO)C[C@@H](C)[C@H](CN(C)Cc2ccncc2)O3)cc1	-3	-2	-0.6
COc1ccc(S(=O)(=O)N(C)C[C@@H]2OCCCC[C@H](C)Oc3ccc(NS(=O)(=O)c4c(C)noc4C)cc3C(=O)N([C@H](C)CO)C[C@H]2C)cc1	2	3	3.1
O=C(Nc1ccc2c(c1)[C@@H]1C[C@H](CC(=O)N3CCOCC3)O[C@@H](CO)[C@@H]1O2)C1CCC1	2	3	-1.7
CCS(=O)(=O)N1CCCCN2[C@H](CO)[C@H](c3ccc(C#Cc4ccccc4OC)cc3)[C@H]2C1	0	-28	15
O=C(C[C@H]1C=C[C@H](NC(=O)Nc2ccc(C(F)(F)F)cc2)[C@H](CO)O1)NCc1ccccn1	1	2	-1.7
CS(=O)(=O)N1CC(=O)N2[C@H](CO)[C@H](c3ccc(C#Cc4ccc(F)cc4)cc3)[C@@H]2C1	-1	-10	0.3
COc1ccc(CC(N)c2csc(Nc3cc(Oc4ccccc4)ncn3)n2)cc1 (stereo unspecified)	-51	-77	-21

Some of the compounds tested; the hit share may differ from the screen's.
